B2AR ag: activates human beta-2 adrenergic receptor causing internalization | P07550 | Am2.2-beta2AR cells, FAP receptor internalization, flow cytometry; reference of the scale not given here | response, % (test concentration not listed) | 0.43% of 340,000 active | AID 504454;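 active = response above a set limit, near 3 SD of response in nonfluorescent compounds, cut at about 42% in these data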;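 also: stock transfer was 100 nL into about 11 µL; a reference agonist was the positive control; negative values mostly stem from fluorescent compounds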
Target sequence (P07550 whole entry, looked up): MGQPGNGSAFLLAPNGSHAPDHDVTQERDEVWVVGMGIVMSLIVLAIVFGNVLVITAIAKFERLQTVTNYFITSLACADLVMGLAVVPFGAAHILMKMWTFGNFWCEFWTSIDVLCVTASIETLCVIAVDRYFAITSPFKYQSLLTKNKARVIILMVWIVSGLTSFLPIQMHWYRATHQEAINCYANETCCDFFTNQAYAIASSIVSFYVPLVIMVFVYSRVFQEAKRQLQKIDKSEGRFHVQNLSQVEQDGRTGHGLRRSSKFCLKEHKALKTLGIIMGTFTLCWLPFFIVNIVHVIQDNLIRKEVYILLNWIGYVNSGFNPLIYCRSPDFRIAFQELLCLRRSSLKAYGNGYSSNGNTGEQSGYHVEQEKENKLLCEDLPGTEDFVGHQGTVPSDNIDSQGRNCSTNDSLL
ALR inh: human ALR oxidase inhibition via reduced H2O2 | P55789 | purified ALR, DTT oxidation, H2O2 HRP-luminol luminescence | inhibition, % (test concentration not listed) | 3.8% of 290,000 active | AID 485317;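 active = mean and each replicate at 75% or more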;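 also: stock transfer was 7.5 nL into about 7.5 µL; 0% = neutral wells and 100% = wells with inactivated enzyme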
Target sequence (P55789 whole entry, looked up): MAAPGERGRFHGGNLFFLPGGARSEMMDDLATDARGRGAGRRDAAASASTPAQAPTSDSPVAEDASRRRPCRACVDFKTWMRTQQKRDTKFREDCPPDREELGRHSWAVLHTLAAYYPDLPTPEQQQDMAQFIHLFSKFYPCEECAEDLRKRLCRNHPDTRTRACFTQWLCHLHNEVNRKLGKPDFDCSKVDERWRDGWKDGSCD
T cruzi inh: blocks replication of Trypanosoma cruzi; T. cruzi beta-gal in NIH3T3, luminescence, 90 h; inhibition, % (concentration not given with the values); 1.4% of 300,000 active; AID 1885;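 active = mean inhibition across valid replicates above about 55%, limit read from the data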;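 also: signal also drops with host cell toxicity which is not excluded here; 0% = plate median of DMSO wells and 100% = zero luminescence signal; higher percent means less beta-gal luminescence so fewer parasites; stock transfer was 50 nL into about 50 µL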
A1 inh: inhibitors of the anti-apoptotic protein A1, read as caspase activation; AID 2462; MEF A1-2A-BIM cells, Caspase-Glo 3/7 luminescence, 3 h; percent of clofoctol response, vehicle zero; caspase activation, % (test concentration not listed); 0.066% of 330,000 active;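 active = over half of replicate activation scores above 10%, or exactly half above 10 with the replicate mean above 10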;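 also: wells of about 30 µL received 50 nL stock; many hits fall short of the cut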
Beta cell apopt: beta cell apoptosis inhibition. AID 435005. protection from apoptosis, % (no concentration beside the values). INS-1E cytokine-induced death, ATP luminescence, 48 h; percent of positive-control rescue, neutral wells zero. 0.8% of 300,000 active;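 active = all replicates at 75% or more, or half of them and the mean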;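 also: 0% = cytokine-treated negative control wells and 100% = positive control rescue; higher means more ATP so stronger rescue from cytokine killing; wells of about 40 µL received 100 nL stock; the first replicate is given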
Ecoli rRNA inh: inhibitors of bacterial rRNA selective over humanized ribosomes. E. coli WT GFP vs humanized-ribosome RFP mutants, fluorescence, 24 h; stronger effect = lower value; DMSO median 0, no signal -100. GFP signal change (wild-type ribosome), % (test concentration not listed). 1.6% of 350,000 active. AID 720706;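 active = significant combined selectivity score with lowered wild-type GFP, culture density cut under 30%, mutant RFP and density less affected; inactive = any of these conditions unmet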; also: one replicate is shown; some compounds called inactive have numbers as strong as hits
Calb FLC: affects C. albicans growth with fluconazole. C. albicans CaCi-2 (fluconazole-resistant clinical isolate) + fluconazole, Alamar Blue growth, 48 h. growth inhibition, % (test concentration not listed). 0.57% of 300,000 active. AID 1979;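 active = most replicates above 75%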;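 also: all wells also contain fluconazole at 8 µg/ml as a sub-toxic cotreatment; 0% = median of DMSO wells and 100% = median of geldanamycin control wells; wells of about 8 µL received 7.5 nL stock; the first replicate is given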
LANA-H2A inh: blocks KSHV LANA binding to histone H2A/H2B. inhibition, % (test concentration not listed). cell-free LANA-H2A/H2B peptide, fluorescence polarization. 0.6% of 320,000 active; in the data active = inhibition mostly above about 10%, no sharp cut-off; inactive = mostly below about 6.7%;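 also: stock transfer was 7.5 nL into about 10 µL; 0% = median of vehicle wells and 100% = median of positive control wells; one replicate is shown; the record names a cut of 25% in any replicate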
Ecoli rRNA inh OD600: second read-out of Ecoli rRNA inh, no call of its own (marks repeat the call); OD600 change, %; measured here: OD600 growth;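 optical density of the mix in the first replicate; 0 = DMSO median and -100 = no signal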
Ecoli rRNA inh RFP: also measured in Ecoli rRNA inh; calls as there; RFP signal change, %; measured here: RFP humanized mutant strains;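 first replicate; 0 = DMSO median and -100 = no signal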
Starred values were filed as active, the others as inactive; x = no result given. This is a subset. The share of hits here may be higher or lower than overall.

Every second line gives: B2AR ag	ALR inh	T cruzi inh	A1 inh	Beta cell apopt	Ecoli rRNA inh	Ecoli rRNA inh OD600	Ecoli rRNA inh RFP	Calb FLC	LANA-H2A inh
1. O=C(Nc1c2c(nn1-c1ccccc1)CS(=O)(=O)C2)C1CCCC1
    -10	-9	11	-1.0	1	8	-7	1.3	0	0.1
2. CSc1ccc(CN2CCCC(CO)(Cc3ccccc3)C2)cc1 (centres undefined)
    -1	-6	46	0.2	-2	-13	-16	-5.3	-2	-1.0
3. COc1nc(-c2ccc(Cl)cc2Cl)nc2ccccc12
    4	-6	-15	0.1	17	7	3	-1.5	4	-1.6
4. O=c1oc2ccccc2c(Nc2cc3ccccc3cc2O)c1[N+](=O)[O-]
    -11	44	-46	0.3	22	-60	-77	-27	6	-2.1
5. Cc1ccccc1NC(=O)Cn1nnc2c(cnn2-c2ccc(F)cc2)c1=O
    6	0	-1	0.1	1	14	5	1.1	12	2.2
6. O=C1C=C(O)CC(c2ccc(Cl)cc2)C1 (centres undefined)
    -3	2	3	-1.2	-8	1	-5	-3.5	18	1.8
7. CCc1nc(N)c(C#N)c(-c2cccnc2)c1C
    3	-6	3	0.6	-5	x	x	x	14	-4.3
8. CC1CCCCC1NC(=O)CSc1nnc(CC(=O)Nc2ccccc2F)n1C (centres undefined)
    5	x	3	0.6	-1	3	6	-1.3	-7	-2.0
9. CCC1Oc2ccc(C)cc2N(CC(=O)N2CCN(c3ccc(F)cc3)CC2)C1=O (centres undefined)
    x	-15	11	0.3	x	x	x	x	-3	7.8
10. CN(C)c1nc(Nc2ccc(F)cc2)nc(Oc2ccc(F)cc2)n1
    -6	-1	2	0.3	x	-23	-23	-1.3	3	-1.9
11. CC(NC(=O)c1ccccc1F)C1CC1 (centres undefined)
    -1	x	-14	0.6	-3	-6	-5	4.7	3	-0.2
12. Cc1cc2oc(=O)cc(CN(C)Cc3ccccc3)c2cc1C(C)C
    10	0	46	-0.8	-9	-4	-21	-1.0	-10	-0.2
13. Cc1cc(C(=O)CSc2nnc(-c3ccc(Cl)cc3)n2CC2CCCO2)c(C)n1C (centres undefined)
    0	14	4	2.4	0	x	x	x	-7	-0.3
14. CC(Sc1nnc(CN2CCCC2)n1Cc1ccccc1)C(=O)Nc1ccc(F)cc1 (centres undefined)
    3	0	5	0.5	-4	-9	-8	3.0	5	1.9
15. CCCCn1c(N)c(N(CC(C)C)C(=O)CCCc2nc3ccccc3c(=O)[nH]2)c(=O)[nH]c1=O
    -4	-4	-8	1.1	-4	1	10	-1.3	-3	2.6
16. COc1ccc(C(CNC(=O)c2cccc(Br)c2)N2CCCC2)cc1 (centres undefined)
    -1	3	6	1.2	-6	x	x	x	-16	-5.7
17. CC(=O)N/C(=C/c1ccc2c(c1)OCO2)C(=O)NCCCO
    5	-5	-10	-0.3	0	x	x	x	-5	5.0
18. COc1ccc(NC(=O)[C@@H]2CC=C[C@@H]3CCN(Cc4ccc(Cl)c(Cl)c4)C(=O)[C@@H]32)cc1
    15	-23	18	0.7	-3	-30	-32	-3.9	-2	-0.5
19. Cc1ccc(NC(=O)[C@H](C)NC(=O)C2CCN(C(=O)[C@@H](NC(=O)OC(C)(C)C)C(C)C)CC2)cc1
    -2	-4	1	0.9	-3	18	12	3.7	3	-0.4
20. Cc1ccc(C(C)C)c(OCC(=O)NN=C2CCCCCCC2)c1
    -2	x	-7	-0.5	8	x	x	x	1	0.8
21. CC(NC(=O)c1ccc(C(C)(C)C)cc1)C(=O)O (centres undefined)
    4	-4	-10	0.3	-2	x	x	x	-1	2.0
22. COc1ccc(Nc2nc3c(C)cccc3cc2C#N)cc1
    6	-6	12	-1.6	2	9	13	-0.5	46	6.0
23. Cc1coc2c(C)c3oc(=O)c(CCC(=O)NCCC(=O)O)c(C)c3cc12
    1	0	-9	0.1	-6	0	2	-2.4	-8	0.4
24. CCN(CC)CCNS(=O)(=O)c1ccc(Cl)cc1
    -5	-14	9	0.7	-2	x	x	x	-2	-3.4
25. CC(=O)Nc1ccc(S(=O)(=O)N2CCN(C(=O)N3CCOCC3)CC2)cc1
    3	-1	-18	1.0	-3	x	x	x	-7	7.1
26. CC(C)CNC(=S)NC(=O)c1ccc([N+](=O)[O-])cc1
    3	6	-7	-0.4	-7	x	x	x	11	3.2
27. CC1(NC(=O)Cn2cc(C(F)(F)F)ccc2=O)CCS(=O)(=O)C1 (centres undefined)
    8	-2	x	0.3	-2	3	7	-1.2	x	4.8
28. COc1ccc(NC(=O)c2sc(SCc3ccccc3)nc2N)cc1
    7	-2	0	-0.5	0	x	x	x	6	1.5
29. COc1ccc2c(c1)C1NC(=S)N[C@@](C)(O2)C1C(=O)Nc1ccccc1 (some centres undefined)
    -3	3	-5	0.4	-16	x	x	x	0	4.0
30. O=C(NC(=S)Nc1ccccc1)c1ccc(Br)o1
    4	13	-6	-3.0	-6	4	9	5.8	6	6.0

Complete entries as entered above. Order of values: B2AR ag	ALR inh	T cruzi inh	A1 inh	Beta cell apopt	Ecoli rRNA inh	Ecoli rRNA inh OD600	Ecoli rRNA inh RFP	Calb FLC	LANA-H2A inh
Entry for CSc1ccc(CN2CCCC(CO)(Cc3ccccc3)C2)cc1 (centres undefined) : -1	-6	46	0.2	-2	-13	-16	-5.3	-2	-1.0
Entry for O=C1C=C(O)CC(c2ccc(Cl)cc2)C1 (centres undefined) : -3	2	3	-1.2	-8	1	-5	-3.5	18	1.8

More compounds.
Every second line gives: B2AR ag	ALR inh	T cruzi inh	A1 inh	Beta cell apopt	Ecoli rRNA inh	Ecoli rRNA inh OD600	Ecoli rRNA inh RFP	Calb FLC	LANA-H2A inh
31. CC(=O)Oc1ccc2occ(C(=O)c3ccccc3)c2c1
    -5	3	-7	-4.6	-4	-14	0	-0.7	7	-3.2
32. CCn1cc(C(=O)OCC(=O)N(C)Cc2ccccc2)c(=O)c2ccc(C)nc21
    -4	x	-1	-0.4	0	5	3	-12	3	61*
33. Cc1csc(NC(=O)c2cc(C)nc3ccccc23)n1
    -4	-7	-9	0.9	0	3	1	-0.3	3	-5.1
34. COc1ccc(NC(=O)c2ccco2)cc1NC(=O)c1cccs1
    -10	-1	5	0.4	7	x	x	x	17	3.6
35. CCOC(=O)N1CCN(C(=O)COC(=O)c2cc(Cl)c(O)c(Cl)c2)CC1
    -8	-1	12	0.0	-4	-4	1	-2.4	9	x
36. Cc1cccc(NC(=O)c2ccc(-n3cccn3)c([N+](=O)[O-])c2)c1
    -1	-6	10	-3.0	-6	x	x	x	-5	10
37. Cc1ccc2[nH]c(=O)c(CN(C)C(=O)c3cccs3)cc2c1
    -8	-5	-10	0.0	-3	-2	0	2.0	2	-7.8
38. CS(=O)(=O)Nc1cccc(C2=NN(C(=O)c3ccccc3)C(c3cccs3)C2)c1 (centres undefined)
    7	-11	2	0.5	3	-1	-19	30	11	0.1
39. CCCC[C@@H]1CN=C(N)N1CCc1cccc(F)c1
    -8	-13	11	-3.3	-14	x	x	x	-10	-6.8
40. COc1ccccc1CNCc1cc(OC)c(OC)cc1OC
    2	-6	-5	0.3	-3	17	7	-5.7	-3	3.5
41. N=c1c2c3c(sc2ncn1N)CCCCC3
    -32	0	8	0.8	0	x	x	x	1	6.4
42. N#C/C(=C/c1ccc(O)c(O)c1)C(=O)NCc1ccc(Cl)cc1
    6	22	2	0.7	-2	-61	-63	-10	-9	5.2
43. CC(=O)Nc1nc(C)c(Oc2cccc(C(F)(F)F)c2)c(=O)[nH]1
    2	-1	x	-0.5	-7	6	6	-3.5	-9	-0.4
44. CC(=O)c1ccccc1OC(=O)CCN1C(=O)C2C3C=CC(C4CC34)C2C1=O (centres undefined)
    6	5	8	0.3	1	0	-9	0.7	3	-5.1
45. NC(=O)c1ccsc1NC(=O)COC(=O)/C=C/c1ccc([N+](=O)[O-])cc1
    8	-2	-1	0.2	-6	-3	3	-0.4	0	-0.3
46. O=C(CSc1nc(=O)n2ccccc2n1)N1N=C(c2cccs2)CC1c1ccc(F)cc1 (centres undefined)
    2	x	58*	-0.9	x	-10	-10	3.3	-16	7.1
47. Cc1cccc2sc(N(CCN(C)C)C(=O)C3CCN(S(=O)(=O)c4cccs4)CC3)nc12
    24	x	57*	-0.3	-9	-4	-4	2.5	-1	-2.0
48. CCOC(=O)CC(=O)Nc1ncnc2c1C(c1ccccc1)c1c(ccc3ccccc13)O2 (centres undefined)
    5	-1	x	-0.9	2	-7	-16	2.1	x	-5.5
49. CCNC(=O)N1C(=O)C2(OCCO2)c2ccccc21
    1	-1	-7	0.3	x	x	x	x	-4	0.3
50. CCOc1ccc(C2N(c3cc(C)on3)C(=O)C3CCCN32)cc1OC (centres undefined)
    0	3	-14	0.2	-16	x	x	x	0	-1.4
51. CC1(C)Cc2c(cnn2-c2ccc(F)cc2)C(NC(=O)CCN2CCCC2=O)C1 (centres undefined)
    -7	-2	-7	2.1	-2	4	6	-2.7	-6	0.6
52. Cc1cc(Cl)cc(Cl)c1OCCN1CCCC1
    5	0	48	1.1	x	12	4	0.8	-8	3.8
53. C=CC[n+]1c(-c2ccccc2)csc1NC(C)(C)C
    1	3	-4	-0.4	-1	5	6	0.6	-15	-1.3
54. C=CCn1c2ccccc2c2nnc(SCC(=O)NC(C(=O)OC)C(C)C)nc21 (centres undefined)
    6	-2	-5	-0.1	0	x	x	x	-1	2.6
55. Cc1ccc(S(=O)(=O)NCCN2CCN(S(=O)(=O)c3ccccc3Cl)CC2)cc1
    -9	-10	x	0.3	-10	-7	-16	0.5	x	-9.2
56. CCN(CC)c1ccc(NC(=O)CCS(=O)(=O)c2ccc(Br)cc2)c(C)c1
    3	58	-16	0.5	3	5	6	-1.5	1	5.1
57. O=C(COc1ccccc1)N=C1SC2CS(=O)(=O)CC2N1c1ccccc1F (centres undefined)
    -11	0	0	1.0	-3	13	6	-1.7	13	-3.9
58. Cc1ccc(CNC(=O)c2ccc(Cn3nc(C)c(Cl)c3C)o2)cc1
    -2	-9	-7	1.3	1	x	x	x	4	0.5

Screens deposited in PubChem BioAssay by several laboratories.
